High-throughput results deposited in PubChem BioAssay by ICCB-Longwood Screening Facility, Harvard Medical School.
HCMV NEC inh – inhibitors of HCMV UL50-UL53 nuclear egress complex interaction. HTRF UL50-UL53 interaction, normalized percent inhibition. inhibition, % (concentration not given with the values). hit rate 0.15% among 190,000. AID 1918969;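 active means both replicates at 50% or more, plus weaker picks with an unusually low signal ratio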;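 further: stock transfer was 100 nL into about 20 µL; 0% = negative control wells and 100% = wells with untagged competitor protein; inactives centre near -12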
GIV Gai3 FP – GIV-Galpha-i interaction inhibition | P08753 | Galpha-i3/FITC-GIV peptide fluorescence polarization, 90 min; active compounds read low; scaled: aluminum fluoride 0%, vehicle 100% | percent of control (FP), % (no concentration beside the values) | hit rate 0.42% among 210,000 | AID 1224905;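 active means replicate mean at 85% of control or lower, very high polarization wells dropped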;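 further: wells of about 15 µL received 100 nL stock; the first replicate is given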
Target sequence (P08753 whole entry, looked up): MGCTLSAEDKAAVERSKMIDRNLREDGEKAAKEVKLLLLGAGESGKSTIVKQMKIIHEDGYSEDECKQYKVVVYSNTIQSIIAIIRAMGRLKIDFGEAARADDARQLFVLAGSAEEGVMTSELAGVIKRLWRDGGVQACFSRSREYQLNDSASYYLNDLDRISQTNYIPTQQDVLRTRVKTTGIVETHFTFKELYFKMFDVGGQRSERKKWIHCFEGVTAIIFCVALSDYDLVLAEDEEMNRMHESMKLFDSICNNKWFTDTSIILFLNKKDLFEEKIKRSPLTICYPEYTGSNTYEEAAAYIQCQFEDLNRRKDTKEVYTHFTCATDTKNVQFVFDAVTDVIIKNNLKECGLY
Sa growth inh – inhibitors of Staphylococcus aureus growth at 42 °C | hit rate 0.53% among 170,000 | relative growth, % (concentration not given with the values) | S. aureus RN4220 growth, OD600, 20 h; active compounds read low;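 active means growth at 42 °C up to 50% and 20 or more points under that at 30 °C, or under 10% at both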;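 further: 300 nL library stock went into each well; scaled to the means of positive and negative controls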
Sa growth inh second temp – also measured in Sa growth inh; calls as there; relative growth, %; measured here: growth at 30 °C;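 optical density after 20 h as mean of two plates; 100% = untreated growth and lower means inhibition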
* marks the source's active call; other numbers are inactive results; . = no result given; & = joins results of further samples.

entry	smiles	HCMV NEC inh	GIV Gai3 FP	Sa growth inh	Sa growth inh second temp
1	C=CCOc1nc(N(C)C)nc(N2CCOCC2)n1	14	104	98	99
2	C=CCn1c(SCC(=O)c2ccc3c(c2)NC(=O)CO3)nc2cc(Cl)ccc2c1=O	-3	.	105	95
3	CCOc1ccc(S(=O)(=O)Nc2ccc3oc(C)c(C(=O)OCCOC)c3c2)cc1	.	108	106	94
4	C=CCN1C(=O)/C(=C2/C=CC=CN2C)SC1=S	-101	116	87	76
5	CC1Sc2ccc(S(=O)(=O)C(C)CC(=O)N3CCN(c4ccccc4F)CC3)cc2NC1=O (stereo not drawn)	5	102	92	89
6	CC(NC(N)=O)C12CC3CC(CC(C3)C1)C2 (stereo not drawn)	-6	98	99	111
7	CC(C)c1ccc(-c2nc(O)cc(=O)s2)cc1	-27	102	.	.
8	CCc1ccccc1N1CC(c2nc3ccccc3n2CCc2ccccc2)CC1=O (stereo not drawn)	.	103	85	72
9	O=C(COC(=O)c1nc(Cl)ccc1Cl)c1ccc2[nH]c(=O)[nH]c2c1	-41	.	104	98
10	Clc1ccc2nc(N3CCCCC3)nc(-c3ccccc3)c2c1	.	104	103	93
11	COc1cccc(-c2csc(-c3c(N)c(C(=O)c4ccc5c(c4)OCO5)n4ccccc34)n2)c1	-14	100	116	87
12	O=C(Cn1cc(S(=O)(=O)Cc2ccccc2Cl)c2ccccc21)Nc1ccc(F)cc1F	.	103	112	75

Looked up above:
Under HCMV NEC inh, no. 7 has -27
Under Sa growth inh second temp, no. 1 has 99
Under Sa growth inh, no. 4 has 87
Under Sa growth inh, no. 11 has 116
Under Sa growth inh second temp, no. 3 has 94

The list goes on.
entry	smiles	HCMV NEC inh	GIV Gai3 FP	Sa growth inh	Sa growth inh second temp
13	Clc1ccc2nc(SCCOc3ccccc3)[nH]c2c1	1	104	.	.
14	O=C(O)/C=C/c1ccc(SC(F)F)cc1	-18	.	95	99
15	Cc1ccc(CC(=O)NCC(O)c2ccccc2)cc1 (stereo not drawn)	-13	.	91	82
16	CN(C)S(=O)(=O)c1ccc(=O)n(CC(=O)N2CCSC2c2ccccc2F)c1 (stereo not drawn)	-17	.	103	91
17	Cc1cc2c(=O)c(C(=O)c3ccncc3)cn(CC(=O)Nc3cccc(C)c3C)c2cc1C	.	106	101	88
18	COc1cc(/C=C2\C(=O)NC(=O)N(c3ccc(C)cc3)C2=O)c([N+](=O)[O-])cc1OC	-60	106	.	.
19	C/C(=N\O)c1ccccc1Cl	-7	97	103	91
20	N=c1c(C(N)=O)cc2c(=O)n3ccccc3nc2n1C1CCCC1	-125	90	96	92
21	Cn1c(NCCCO)nc2c1c(=O)n(Cc1cccc(F)c1)c(=O)n2C	-22	106	113	90
22	Cc1ccc(-c2noc(-c3ccccc3NC(=O)C3CC(=O)N(C(C)C)C3)n2)cc1 (stereo not drawn)	-31	108	.	.
23	COc1cc2c(cc1OC)n(CC(=O)c1cc(C)ccc1C)c(=O)n1nc(CCn3nc(C)cc3C)nc21	.	106&103	104	73
24	C=CCOc1cccc(-c2nn3c(-c4ccccn4)nnc3s2)c1	-18	121	.	.

Some of these compounds in order of molar mass, descending:
entry	smiles	HCMV NEC inh	GIV Gai3 FP	Sa growth inh	Sa growth inh second temp
23	COc1cc2c(cc1OC)n(CC(=O)c1cc(C)ccc1C)c(=O)n1nc(CCn3nc(C)cc3C)nc21	.	106&103	104	73
2	C=CCn1c(SCC(=O)c2ccc3c(c2)NC(=O)CO3)nc2cc(Cl)ccc2c1=O	-3	.	105	95
8	CCc1ccccc1N1CC(c2nc3ccccc3n2CCc2ccccc2)CC1=O (stereo not drawn)	.	103	85	72

(list continues)
entry	smiles	HCMV NEC inh	GIV Gai3 FP	Sa growth inh	Sa growth inh second temp
25	Cc1cc(NC(=O)NCCNc2ncccc2C(F)(F)F)c(C(F)(F)F)o1	-18	101	99	90
26	c1cc2c(cc1CNc1ccc3c(c1)CCC3)OCO2	-11	112	73	77
27	CC(C)CNC1=NCCS1	12	.	79	98
28	Cc1nc2cc(C(=O)O)ccc2n1-c1ccc(C(C)C)cc1	-8	108	94	92
29	CC1CCCC(C)N1Cc1cc2c3c(c(=O)oc2cc1O)CCC3 (stereo not drawn)	-42	.	85	74
30	O=C(Nc1ccc2oc(-c3ccc(F)cc3)nc2c1)c1ccc2c(c1)OCCO2	-10&-11	107&99	.	.
31	O=C(Cn1ccn(Cc2ccccc2)c(=O)c1=O)Nc1ccccc1	.	101	93	82
32	N#Cc1c(N)nc(SCC(=O)Nc2ccc([N+](=O)[O-])cc2)c(C#N)c1-c1ccco1	-27	97	.	.
33	O=C(COc1ccccc1)N(Cc1cccnc1)c1nc2ccc(Cl)cc2s1	.	101	136	84
34	COc1ccc(OC)c(NC(=O)c2nnn(Cc3ccccc3C)c2N)c1	-27	107	.	.
35	Cn1cc(CCC(=O)NCc2ccccc2Cl)c2ccccc21	3	113	120	96
36	NNc1nc(Nc2cccc([N+](=O)[O-])c2)nc(N2CCCCC2)n1	-23	100	.	.

(further entries)
entry	smiles	HCMV NEC inh	GIV Gai3 FP	Sa growth inh	Sa growth inh second temp
37	Cc1ccc(OCC(=O)Nc2ccccc2OC(F)F)c(C)c1	-30	110	113	79
38	COc1ccc(-c2noc(COc3cc(C)ccc3C)n2)cc1OC	-10	102	98	94
39	CCCCOc1ccc(C(=O)O/N=C(\C)c2ccco2)cc1	-16	110	120	96
40	c1ccc(Oc2ccc(-c3ccnc4ncnn34)cc2)cc1	-21	107	.	.
41	O=CNc1nonc1NC(=O)c1ccccc1Cl	11	.	111	68
42	Cn1c(=O)c(=O)n(C)c2cc(NC(=O)c3sc4ccccc4c3Cl)ccc21	-29	98	.	.
43	CC(C)NCc1ccc2c(c1)n(C)c(=O)n2C	-18	105	.	.
44	CCn1nc(C)c(NC(=O)CCSc2nc(-c3ccco3)cc(C(F)(F)F)n2)c1C	-22	103	86	86
45	Cc1c(C#N)c(NC(=O)CSc2nnc(-c3ccccc3)n2-c2ccc(Cl)cc2)n(CC2CCCO2)c1C (stereo not drawn)	-19	.	96	77
46	COc1cccc(NC(=O)CSC2=Nc3ccccc3C3=NC(CC(=O)NCc4ccc5c(c4)OCO5)C(=O)N23)c1 (stereo not drawn)	.	107	79	94
47	CCn1c(SC)nnc1C1CCN(C(=O)N2CCCC2)CC1	-6	98	104	81
48	COC(CNC(=O)c1ccc2c(c1)ncn2-c1cccc(F)c1)OC	-29	99	91	82

The listing continues:
entry	smiles	HCMV NEC inh	GIV Gai3 FP	Sa growth inh	Sa growth inh second temp
49	CC(C)(CO)NC(=S)NCc1ccco1	2	105	104	98
50	O=c1[nH]c2ccccc2nc1-c1c[nH]n(-c2ccccc2)c1=O	-27	.	94	93
51	COc1ccccc1NC(=O)c1nc(SCc2ccc(F)cc2)ncc1Cl	-30	103	95	83
52	CC1CCc2c(sc3nc(Cc4nc5ccccc5n4C)[nH]c(=O)c23)C1 (stereo not drawn)	-3	.	84	14
53	Cc1cccc2cc(C#N)c(SCC(=O)NCC3CCCO3)nc12 (stereo not drawn)	-5	108	107	84
54	COc1ccc(N(Cc2ccccn2)C(=O)c2ccc(F)cc2)cc1	-126	95	99	91
55	CC1=CCC2C(=O)N(c3ccccc3)C(=O)C2C1 (stereo not drawn)	-7	103	107	98
56	CCOC(=O)CNC(=O)N1Cc2c(sc3c2CCCC3)-n2cccc2C1c1ccc(C(C)C)cc1 (stereo not drawn)	-11	110	.	.
57	Cc1ccc(C(=O)CC(C(=O)O)n2cncn2)cc1 (stereo not drawn)	-22	94	93	85
58	COc1ccc(CNC(=O)Cc2coc3ccc(C(C)C)cc23)cc1	-7	102	109	101
59	Cc1csc(NC(=O)CC(c2ccc(F)cc2)N2Cc3ccccc3C2=O)n1 (stereo not drawn)	4	101	.	.
60	CCc1noc(CC)c1C(=O)O	.	103	113	99

Later entries
entry	smiles	HCMV NEC inh	GIV Gai3 FP	Sa growth inh	Sa growth inh second temp
61	Cc1ccc(-c2nnc(SCC(=O)NCC3COc4ccccc4O3)o2)cc1 (stereo not drawn)	-20	.	89	95
62	COc1ccc2[nH]c(C)cc(=O)c2c1	-5	.	96	92
63	COC(CNC(=O)c1cnn2c(C)c(Cc3c(C)cc(C)cc3C)c(C)nc12)OC	.	99	85	71
64	Cc1nc(-c2ccc(Cl)c(S(=O)(=O)N3CCCC(C(=O)Nc4ccc(C)c(Cl)c4)C3)c2)no1 (stereo not drawn)	-9	99	.	.
65	CC(C)NC(=O)N1c2ccccc2Sc2ccccc21	1	101	110	97
66	CC(C)C(=O)Nc1ccc(N2CCN(c3ccc(F)cc3)CC2)cc1	-14	100	.	.
67	O=C(CCCC(=O)c1ccccc1)Nc1ncn[nH]1	.	103	92	90
68	Cc1cc(N2CCC(C)CC2)nc2cccc(O)c12	.	105	125	73
69	COc1ccc(S(=O)(=O)N(CC(=O)NCc2ccccc2)c2ccc(C)cc2)cc1OC	-13	107	100	88
70	CCOc1cc(N2CCOCC2)c(OCC)cc1NC(=O)C1=NN(c2ccccc2)C(=O)CC1	-9	.	111	87
71	Cc1cc2c(cc1S(=O)(=O)N1CCCC(C(=O)N3CCN(C4CCCCC4)CC3)C1)OC(C)C(=O)N2 (stereo not drawn)	10	109	.	.
72	O=C(Nc1cccc(F)c1)C1CCN(C(=O)c2cccn2-c2cccnc2)CC1	-3	106	.	.

Record cards, from the list above. Values in the order: HCMV NEC inh | GIV Gai3 FP | Sa growth inh | Sa growth inh second temp
C/C(=N\O)c1ccccc1Cl is entered as -7 | 97 | 103 | 91
O=C(CCCC(=O)c1ccccc1)Nc1ncn[nH]1 is entered as . | 103 | 92 | 90
CC(C)C(=O)Nc1ccc(N2CCN(c3ccc(F)cc3)CC2)cc1 is entered as -14 | 100 | . | .
COc1cccc(-c2csc(-c3c(N)c(C(=O)c4ccc5c(c4)OCO5)n4ccccc34)n2)c1 is entered as -14 | 100 | 116 | 87

Next section:
entry	smiles	HCMV NEC inh	GIV Gai3 FP	Sa growth inh	Sa growth inh second temp
73	COc1ccc(C2=NN(S(=O)(=O)c3ccc(C)cc3)C(c3ccc(N(C)C)cc3)C2)cc1OC (stereo not drawn)	-6	153	.	.
74	COc1cccc(C(=O)/C=C(\Nc2ccc3c(c2)COC3=O)C(=O)O)c1	.	97	103	89
75	CCOC(=O)c1cc(-c2ccc(F)cc2)n(CC(=O)Nc2nccs2)c1C	0	.	96	80
76	O=S(=O)(c1ccc(-c2csc(=Nc3ccc(OC(F)(F)Cl)cc3)n2CCCO)cc1)N1CCCC1	17	110	103	93
77	O=c1c(=O)n(-c2ccccc2)ccn1Cc1ccc(F)cc1	-46	107	.	.
78	CC(=O)Nc1ccc(F)c(C#N)c1	7	99	105	102
79	COc1ccc(-c2cn3nc(N4CCCC(C(=O)Nc5cc(C)ccc5C)C4)sc3n2)cc1 (stereo not drawn)	.	98	106	83
80	Cn1c(SCC(N)=O)nc2c(-c3ccccc3)csc2c1=O	-12	99	.	.
81	CCOC(=O)c1cnn(-c2cc(C(C)(C)C)nc3c(-c4ccc(F)cc4)c(C)nn23)c1N	-20	98	.	.
82	CCn1c(C(=O)N2CCC(C(=O)N3CCc4ccccc4C3)CC2)cc2occc21	-20	105	100	85
83	CC(=O)NC1C(OCC(C)C)OC(COC(C)=O)C(OC(C)=O)C1OC(C)=O (stereo not drawn)	1	.	91	92
84	Cc1cc(=O)oc2cc(OC(=O)C3CCCN3C(=O)OC(C)(C)C)c(Cl)cc12 (stereo not drawn)	-14	.	86	86

Other structures.
entry	smiles	HCMV NEC inh	GIV Gai3 FP	Sa growth inh	Sa growth inh second temp
85	CC(C)c1ccc2oc(-c3ccc(NC(=O)c4cc5ccccc5o4)cc3)nc2c1	-13	105	96	79
86	O=c1c(Cl)c(Cl)cnn1C12CC3CC(CC(C3)C1)C2	.	101	22	20
87	CCC(C)NC(=O)C1CCC(=O)N1CCc1ccccc1 (stereo not drawn)	.	104	101	84
88	Cc1ncc(-c2ccc(S(=O)(=O)Nc3cccnc3)cc2)o1	-26	107	.	.
89	CCn1c(=O)c(N2CCCC(C(=O)N3CCC(N4CCCCC4)CC3)C2)nc2cccnc21 (stereo not drawn)	-44	113	.	.
90	CCN(CC)c1c(S(=O)(=O)c2ccccc2)cnc2ccc(OC)cc12	-14	96	.	.
91	Cc1ccc(C(=O)NCc2ccccc2)cc1NC(=O)c1nsc2ccccc12	.	110	108	77
92	COc1ccc(C2=NC(C)(C)N(CC(=O)Nc3cccc(C)c3)C2=O)cc1	-4	99	108	89
93	C=CCn1c(C2CC(=O)N(C)C2)nc2ccccc21 (stereo not drawn)	-24	99	.	.
94	O=C(CN1C(=O)C2CCCCN2c2ccc(S(=O)(=O)N3CCCCC3)cc21)NC1CCCC1 (stereo not drawn)	-10	106	.	.
95	O=C(Cn1cncn1)N/N=C/c1cccs1	-73	.	73	79
96	CCOc1ccccc1N(Cc1nc2nc(C)cc(=O)n2[nH]1)S(=O)(=O)c1ccccc1	6	108	.	.
